Screens from PubChem.
Autofluor counter – counter-screen for toxin protease inhibitors: compound fluorescence; compound autofluorescence counterscreen, microsphere flow cytometry; hits give high values; fluorescence intensity (test concentration not listed); actives 3.1% (n = 360,000);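 active = at least 3 SD above the mean of all compounds, about 16000 in these data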;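 note: 100 nL of 1 mM stock went into each well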
An asterisk follows results filed as active. An excerpt; the hit share may differ from the screen's.

SMILES | Autofluor counter
Cc1cc(NC(=O)c2ccc3sc([C@@H]4O[C@H](CO)[C@H](O)[C@H](O)[C@H]4O)nc3c2)no1 | 2980
COc1ccc(C(CNC(=O)CNC(=O)c2cccc(F)c2)N2CCOCC2)cc1 (centres undefined) | 3427
COC(=O)c1c(C)[nH]c(C(=O)COC(=O)CCc2ccc(OC)c(OC)c2)c1C | 2857
C[C@@H]1CN([C@H](C)CO)C(=O)CCCn2nncc2CO[C@H]1CN(C)C(=O)Nc1ccc2c(c1)OCO2 | 3646
COc1ccc(-c2ccc(C(=O)NCCN(C)C)c3occc23)c(C)c1 | 4024
Cc1c(C(=O)NCc2ccc3c(c2)OCCO3)sc(=O)n1Cc1ccccc1F | 5059
O=C(Nc1cccc(C(=O)O)c1)/C(=C\c1ccccc1)NC(=O)c1ccco1 | 3863
CCCCC[C@@H](C)N1C[C@H](COCc2ccccc2)Oc2cc(N3CC[C@@H](N(C)C)C3)ccc2S1(=O)=O | 7186
COCCNC(=S)N(CCCO)Cc1cc2cc3c(cc2[nH]c1=O)OCO3 | 3779
O=[N+]([O-])c1cccnc1Nc1ccc(Cl)cc1 | 3769
O=C(NCc1cc(Cl)cc(Cl)c1)c1ccc2nc([C@H]3C[C@H](O)[C@@H](CO)O3)[nH]c2c1 | 3285
CC(C)(C)c1ccc(CC(=O)N2CCC2(C)C(=O)NS(=O)(=O)c2cccs2)cc1 (centres undefined) | 3732
COc1cccc(CNC(=O)COC(=O)c2ccc(-c3ccc(O)cc3)cc2)c1 | 3769
C#CCOc1ccc(/C=C2/C(=O)N(c3ccc(S(N)(=O)=O)cc3)N=C2C)cc1OC | 4215
COc1ccc(-n2nnnc2C2c3ccccc3C(=O)N2C2CCN(Cc3ccccc3)CC2)cc1 (centres undefined) | 6073
CC#CCOCC1CNC(=O)O1 (centres undefined) | 3757
CN(C)CCN(Cc1ccccc1)C(c1ccnc2ccccc12)c1nnnn1-c1ccc2c(c1)OCCO2 (centres undefined) | 5899
COc1ccc(NC(=O)C2(C)Cc3c(-c4cccc(C(F)(F)F)c4)ccnc3O2)cn1 (centres undefined) | 3438
CCc1ccc2cc3c(cc2n1)C(=O)c1ccccc1-3 | 6246
O=C(NCCc1c[nH]c2ccccc12)c1[nH]c(C(F)(F)F)nc1-c1ccccc1 | 5895
COc1ccc(S(=O)(=O)N2CCC3CC2c2cc(-c4ccc5c(c4)OCO5)ccc23)cc1 (centres undefined) | 6099
CCNC(=O)c1cc2c(c(-c3cccc(-c4cccc(C(=O)N(C)C)c4)c3)n1)[C@H](CCO)N(S(=O)C(C)(C)C)C2 (some centres undefined) | 6163
COc1ccc(C=C2SC(=S)N(CCCC(=O)Nc3ccc(C(=O)O)c(O)c3)C2=O)cc1OC | 3663
Cc1ccc(NC(=O)CCC(=O)NN=Cc2ccc(C)o2)c(C)c1 | 3487
COCCCN1C(=O)C(CC(=O)NCCCN(C)C)CC(C(=O)N2CCOCC2)=C1C (centres undefined) | 5567
O=C(OCc1cn([C@@H]2C[C@H](c3ccc(Cl)cc3)N(C(=O)C3CCCCC3)C[C@H]2O)nn1)c1ccccc1 | 2943
O=C(NCC(F)(F)F)c1csc([C@@H]2O[C@H](CO)[C@H](O)[C@H](O)[C@H]2O)n1 | 4313
COc1ccccc1C=C(C(=O)c1ccccc1)c1ccccc1 | 4654
CCOC(=O)C1=CCC(c2ccc(CC)cc2)N(S(=O)(=O)c2ccc(C)cc2)C1 (centres undefined) | 5574
CC(OC(=O)C1=COCCO1)C(=O)NC1CCCCC1 (centres undefined) | 3033
CCc1nc2ccc(C(=O)NCCOc3ccc(OC)cc3)cn2c1N(C)Cc1ccc(N(C)C)cc1 | 3806
COc1ccc(CC(N)c2csc(NC(=O)Nc3ccccc3-c3ccccc3)n2)cc1 (centres undefined) | 3830
CCCCNC(=O)C1(C)CCN1C(=O)CSc1ccccc1 (centres undefined) | 4172
O=[N+]([O-])c1ccc(C=Nc2ccccc2)cc1 | 7167
CCCS(=O)(=O)NC(=O)C1(C)CCN(C(=O)c2ccccc2OC)C1 (centres undefined) | 3496
CCCCn1nnnc1C1(C)CCC(=O)N1CCCn1ccnc1 (centres undefined) | 4241
C[C@H](c1ccccc1)N1C[C@@H](COCc2ccccc2)Oc2cc(N3CCC[C@H]3CO)ccc2S1(=O)=O | 8696
COC(=O)c1cnc(Nc2nc(C(N)Cc3ccc(OC)cc3)cs2)nc1C(F)(F)F (centres undefined) | 3556
CCCCn1c(N)c(N(CC(C)C)C(=O)CC(NC(=O)c2ccccc2Cl)c2ccccc2)c(=O)[nH]c1=O (centres undefined) | 2793
Cc1c(NC(=O)COC(=O)/C=C/c2cccc(F)c2)c(=O)n(-c2ccccc2)n1C | 3603
OC(Cc1cccc(Br)c1)c1ncc(-c2cccc(C(F)(F)F)c2)[nH]1 (centres undefined) | 2883
COc1ccc(Cc2c(C3CCCCC3)nc3c(C)cc(Br)cn23)c(C)c1 | 5814
O=C1OC(c2ccccc2)=CC1=Cc1ccccc1O | 2801
CC1(C)OC(=O)C2=C(C[C@@H](CCc3ccccc3)O[C@@H]2c2ccc(F)cc2)O1 | 5298
CCOC(=O)C1=CCN(S(=O)(=O)c2ccc(C)cc2)[C@H]1c1ccccc1Cl | 5680
C[C@H]1CN([C@@H](C)CO)C(=O)CCCn2nncc2CO[C@@H]1CN(C)C(=O)Nc1ccnc(N2CCOCC2)c1 | 3694
CCCCNC(=O)c1nc(C2CCN(S(=O)(=O)c3cccc(C(F)(F)F)c3)CC2)oc1-c1cccc(C(F)(F)F)c1 | 4363
COc1ccc(-c2cc3nc(NCCCN(C)C)n(C)c(=O)c3s2)cc1OC | 3851
CC(C)(C)n1nnnc1C(c1cc2ccccc2o1)N1CCOCC1 (centres undefined) | 4263
COc1ccc(OCCN2CCC(C(=O)NC(c3ccc(Cl)cc3)c3cnccn3)CC2)cc1 (centres undefined) | 3294
C[C@@H]1CCCCO[C@@H](CN(C)C(=O)Cc2ccccc2)[C@@H](C)CN([C@H](C)CO)C(=O)c2cc(NC(=O)C3CCCCC3)ccc2O1 | 3770
Cc1ccccc1C(NC(=O)C1CCN(Cc2ccc(Oc3ccccc3)cc2)CC1)c1ccsc1 (centres undefined) | 3986
C[C@@H]1CN([C@@H](C)CO)C(=O)CCCn2nncc2CO[C@@H]1CN(C)S(=O)(=O)c1cn(C)cn1 | 2820
Cc1ccc(F)c(S(=O)(=O)NC(=O)C2(C)CCN2C(=O)CCc2ccccc2)c1 (centres undefined) | 3836
CCc1nc2c(OCc3ccc(Cl)cc3Cl)cccn2c1N(C)C(=O)c1ccccc1F | 3818
COC(=O)c1ccc2nc(-c3ccc(F)cc3)c(Cc3ccccc3C(F)(F)F)n2c1 | 5864
CC1=C(C(=O)N2CCCCCC2)CC(CC(=O)NCCN2CCOCC2)C(=O)N1Cc1ccc(C(C)(C)C)cc1 (centres undefined) | 5530
CC(C)C[C@H]1CNC(=O)C(=O)N1C[C@@H]1CCCN1C[C@H](Cc1ccc(O)cc1)N1C[C@H](Cc2ccccc2)N(CC2CCCCC2)C(=O)C1=O | 5728
COc1ccccc1-c1cc(NC(C)=O)c2ncc(-c3ccccc3)n2c1 | 3094
NC(Cc1ccc(C(F)(F)F)cc1)c1csc(NC(=O)Nc2ccccc2Cc2ccccc2)n1 (centres undefined) | 3950
Following part.
SMILES | Autofluor counter
CCCn1c(SCC(=O)N(C)C2CCCCC2)n[nH]c1=O | 3911
COCOCCn1cc(CN2CCS(=O)(=O)N(Cc3ccc(-c4ccc(F)cc4)cc3)C(CC(C)C)C2=O)nn1 (centres undefined) | 3458
COc1ccc(-c2nc3c4ccccc4ccn3c2Cc2ccc(C)cc2)cc1OC | 6083
Cc1ccccc1S(=O)(=O)NC(=O)C1(C)CCN1C(=O)c1ccccc1CCc1ccccc1 (centres undefined) | 2975
O=C(NCc1ccccc1)C1Cc2c(-c3cccc(F)c3)ccnc2O1 (centres undefined) | 4009
OCCN1CCN(c2ncnc3c2ncn3[C@H]2CN(Cc3ccc4c(c3)OCO4)C[C@@H](CO)O2)CC1 | 2953
O=C(Nc1ccc(Cl)cc1)c1csc([C@H]2C[C@H](O)[C@@H](CO)O2)n1 | 2790
COc1ccccc1NC(=O)N(C)C[C@@H]1Oc2ncc(Br)cc2C(=O)N([C@H](C)CO)C[C@@H]1C | 3658
CC1=C(C(=O)N(C)C)CC(CC(=O)NCCCCc2ccccc2)C(=O)N1CCC1=CCCCC1 (centres undefined) | 3896
CCCCn1nnnc1C(c1cc2ccccc2o1)N(C)CCc1ccccc1 (centres undefined) | 6657
O=C(CN1C(=O)c2ccccc2C1=O)NC1CCS(=O)(=O)C1 (centres undefined) | 3911
CCOc1ccc(CCN2C(=O)C(=O)N([C@@H](CC(C)C)CN3CCC[C@H]3CN3C(=O)C(=O)NC[C@@H]3Cc3ccccc3)C[C@@H]2Cc2ccccc2)cc1 | 4355
CC(=O)OCC(=O)C1(O)CCC2C3CC(C)C4=CC(=O)C=CC4(C)C3C(O)CC21C (centres undefined) | 5091
COCCNC(=O)C1CCCN(Cc2ccc(C(C)C)cc2)CC1 (centres undefined) | 3832
O=C(NCC1CCCN1S(=O)(=O)c1cccs1)C(=O)Nc1ccccc1F (centres undefined) | 4927
CCC(=O)N1CCC(C)(C(=O)Nc2ccc(OC)c(OC)c2)C1 (centres undefined) | 3405
CC(=O)Nc1cccc(-c2ccnc3c2CC(C)(C(=O)Nc2ccccc2)O3)c1 (centres undefined) | 2960
CC1CN(C(=O)CSc2nc(N)c(NC(=O)c3ccc(C(F)(F)F)cc3)c(=O)[nH]2)CC(C)O1 (centres undefined) | 2837
O=C(Nc1ccc(F)c(Cl)c1)c1cc(C2CCCCN2C(=O)c2ccc3c(c2)CCO3)on1 (centres undefined) | 3860
CC(C)C[C@@H](CN1CCC[C@H]1CN1C(=O)C(=O)NC[C@@H]1Cc1ccccc1)N1C[C@H](Cc2ccccc2)N(CC2CCCCCC2)C(=O)C1=O | 5142
CC(C)(C)c1ccc(C(=O)O/N=C(\N)Cc2cccs2)cc1 | 3554
CC(=O)N1C[C@H]2CON(C)[C@H]2C[C@H]1c1cccc(N2CCOCC2)c1 | 2918
COc1ccc(S(=O)(=O)N2CCCC2CNC(=O)C(=O)NC2CCCC2)cc1 (centres undefined) | 3916
CSC1=NN(c2ccccc2)CN(c2ccccc2)N1C | 3375
C[C@@H]1CN([C@@H](C)CO)C(=O)c2cc(Br)cnc2O[C@@H]1CN(C)Cc1ccc(Oc2ccccc2)cc1 | 3858
CCC/C=C/c1ccc(CN2C(C)C(=O)N(Cc3cn(CCC4OCCCO4)nn3)CCS2(=O)=O)cc1 (centres undefined) | 3001
O=C(NNC(=O)C1CCC1)c1ccc(F)cc1 | 3845
N#Cc1cnc(=S)n(-c2cc(C(F)(F)F)cc(C(F)(F)F)c2)c1N | 3437
CC(C)NC(=O)C1(C)CCN1CCC(=O)c1ccccc1 (centres undefined) | 3108
Cc1ccc(-c2nc3cc(C)c(Br)c(C)n3c2CC2CCCCC2)cc1 | 5997
CC1(C(=O)Nc2cccc3ncccc23)CCN1C(=O)CCc1ccccc1 (centres undefined) | 3837
COCCN1C(=O)COc2ccccc2C1C(=O)NC1CCCC1 (centres undefined) | 5615
CC(C)(C(=O)N1CCC1(C)C(=O)NS(=O)(=O)c1ccc(C#N)cc1)c1ccccc1 (centres undefined) | 3790
CCOC(=O)[C@]12CCC=C1N(Cc1cccc3ccccc13)C(=O)[C@H](CC(=O)N1CCOCC1)C2 | 5010
CC(=O)Nc1cccc(-c2ccnc3c2CC(C(=O)NCc2ccco2)O3)c1 (centres undefined) | 3509
CCOC(=O)C1=CCC(c2ccc(C)cc2)N(S(=O)(=O)c2ccc(C)cc2)C1 (centres undefined) | 4352
COc1ccc(C)cc1NC(=O)COC(=O)c1c(-c2ccccc2)noc1C | 3547
CCCN(CC1CC1)c1cc2c(c3c1ccn3C)C1CCC2C1 (centres undefined) | 6403
CCN1C(=O)C(=CC=CN(C)c2ccccc2)SC1=S | 3885
CC(C)CC1C(=O)N(Cc2cn(CCC3OCCO3)nn2)CCS(=O)(=O)N1Cc1ccc(-c2ccc(F)nc2)cc1 (centres undefined) | 3117
CCOC(=O)C(=O)NCC1CCCN1S(=O)(=O)c1cccs1 (centres undefined) | 4713
COc1cc(NC(=O)CN2CCN(C(=O)c3ccco3)CC2)c(C)cc1[N+](=O)[O-] | 3893
NC(=S)NN=C1CSSC1 | 3765
Cc1ccc(Cc2c(C3CCCCC3)nc3ccc(Br)cn23)cc1 | 6217
